# T cruzi inh = blocks replication of Trypanosoma cruzi | T. cruzi beta-gal in NIH3T3, luminescence, 90 h | hit rate 1.4% among 300,000 | inhibition, % (no concentration beside the values);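 active = mean inhibition across valid replicates above about 55%, limit read from the data; inconclusive = mean below that limit but half or more replicates reach it; inactive = mean below it, under half of replicates reach it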;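 also: signal also drops with host cell toxicity which is not excluded here; 0% = plate median of DMSO wells and 100% = zero luminescence signal; higher percent means less beta-gal luminescence so fewer parasites; stock transfer was 50 nL into about 50 µL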
# Calb FLC = C. albicans growth modulation with fluconazole. growth inhibition, % (concentration not given with the values). C. albicans CaCi-2 (fluconazole-resistant clinical isolate) + fluconazole, Alamar Blue growth, 48 h. AID 1979. hit rate 0.57% among 300,000;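 active = most replicates above 75%; inconclusive = exactly half above 75%; inactive = most below 75%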;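 also: all wells also contain fluconazole at 8 µg/ml as a sub-toxic cotreatment; 0% = median of DMSO wells and 100% = median of geldanamycin control wells; wells of about 8 µL received 7.5 nL stock; the first replicate is given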
# Beta cell apopt = blocks beta cell apoptosis; AID 435005; INS-1E cytokine-induced death, ATP luminescence, 48 h; percent of positive-control rescue, neutral wells zero; protection from apoptosis, % (test concentration not listed); hit rate 0.8% among 300,000;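 active = all replicates at 75% or more, or half of them and the mean; inconclusive = half reach 75% but not the mean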;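 also: 0% = cytokine-treated negative control wells and 100% = positive control rescue; higher means more ATP so stronger rescue from cytokine killing; wells of about 40 µL received 100 nL stock; the first replicate is given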
# LANA-H2A inh = blocks KSHV LANA binding to histone H2A/H2B | Q9QR71 | cell-free LANA-H2A/H2B peptide, fluorescence polarization | inhibition, % (no concentration beside the values) | hit rate 0.6% among 320,000; in the data active = inhibition mostly above about 10%, no sharp cut-off; inactive = mostly below about 6.7%;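 also: stock transfer was 7.5 nL into about 10 µL; 0% = median of vehicle wells and 100% = median of positive control wells; one replicate is shown; the record names a cut of 25% in any replicate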
# B2AR ag = activates human beta-2 adrenergic receptor causing internalization. Am2.2-beta2AR cells, FAP receptor internalization, flow cytometry; reference of the scale not given here. response, % (no concentration beside the values). hit rate 0.43% among 340,000. AID 504454;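 active = response above a set limit, near 3 SD of response in nonfluorescent compounds, cut at about 42% in these data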;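 also: stock transfer was 100 nL into about 11 µL; a reference agonist was the positive control; negative values mostly stem from fluorescent compounds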
# Target sequence (P07550 whole entry, looked up): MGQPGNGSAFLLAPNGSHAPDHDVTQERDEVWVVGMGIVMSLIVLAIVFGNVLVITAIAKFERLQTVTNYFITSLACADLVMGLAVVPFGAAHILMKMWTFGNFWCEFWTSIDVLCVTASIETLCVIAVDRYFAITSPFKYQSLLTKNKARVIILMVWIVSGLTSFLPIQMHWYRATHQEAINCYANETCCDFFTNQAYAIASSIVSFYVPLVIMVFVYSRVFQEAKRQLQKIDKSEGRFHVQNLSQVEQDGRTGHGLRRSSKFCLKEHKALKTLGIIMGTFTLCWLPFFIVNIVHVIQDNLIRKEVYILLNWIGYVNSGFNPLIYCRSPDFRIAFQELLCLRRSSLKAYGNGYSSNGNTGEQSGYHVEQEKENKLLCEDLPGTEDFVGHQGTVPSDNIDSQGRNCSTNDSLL
# A1 inh = inhibitors of the anti-apoptotic protein A1, read as caspase activation. MEF A1-2A-BIM cells, Caspase-Glo 3/7 luminescence, 3 h; percent of clofoctol response, vehicle zero. caspase activation, % (concentration not given with the values). hit rate 0.066% among 330,000;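 active = over half of replicate activation scores above 10%, or exactly half above 10 with the replicate mean above 10; inconclusive = replicate mean below 10 yet half the replicates above 10; inactive = over half of replicates below 10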;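 also: wells of about 30 µL received 50 nL stock; many hits fall short of the cut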
# ALR inh = inhibitors of human sulfhydryl oxidase ALR. P55789. purified ALR, DTT oxidation, H2O2 HRP-luminol luminescence. inhibition, % (concentration not given with the values). hit rate 3.8% among 290,000;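 active = mean and each replicate at 75% or more; inconclusive = only one of the two met; inactive = neither met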;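 also: stock transfer was 7.5 nL into about 7.5 µL; 0% = neutral wells and 100% = wells with inactivated enzyme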
# Target sequence (P55789 whole entry, looked up): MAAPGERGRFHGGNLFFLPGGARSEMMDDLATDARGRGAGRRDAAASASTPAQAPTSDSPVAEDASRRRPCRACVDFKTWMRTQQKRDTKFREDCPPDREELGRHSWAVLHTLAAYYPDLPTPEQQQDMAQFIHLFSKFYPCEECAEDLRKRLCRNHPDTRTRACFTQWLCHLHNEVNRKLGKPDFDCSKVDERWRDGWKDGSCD
# Ecoli rRNA inh = inhibitors of bacterial rRNA selective over humanized ribosomes. E. coli WT GFP vs humanized-ribosome RFP mutants, fluorescence, 24 h; hits give low values; DMSO median 0, no signal -100. GFP signal change (wild-type ribosome), % (concentration not given with the values). hit rate 1.6% among 350,000. AID 720706;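 active = significant combined selectivity score with lowered wild-type GFP, culture density cut under 30%, mutant RFP and density less affected; inactive = any of these conditions unmet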; also: one replicate is shown; some compounds called inactive have numbers as strong as hits
# Ecoli rRNA inh OD600 = further read-out of Ecoli rRNA inh, marked with its call; OD600 change, %; measured here: OD600 growth;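 optical density of the mix in the first replicate; 0 = DMSO median and -100 = no signal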
# Ecoli rRNA inh RFP = also measured in Ecoli rRNA inh; calls as there; RFP signal change, %; measured here: RFP humanized mutant strains;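 first replicate; 0 = DMSO median and -100 = no signal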
# Active calls of the source: *; ? = inconclusive; . = not tested or not shown.
smiles,T cruzi inh,Calb FLC,Beta cell apopt,LANA-H2A inh,B2AR ag,A1 inh,ALR inh,Ecoli rRNA inh,Ecoli rRNA inh OD600,Ecoli rRNA inh RFP
CN(C)S(=O)(=O)N(CC(=O)Nc1ccccc1F)c1ccccc1,-4,-12,-5,-1.1,2,0.2,-16,.,.,.
COc1ccc(S(=O)(=O)N2CCN(C(=O)c3cccnc3)CC2)cc1OC,-7,3,.,-6.4,0,1.1,-2,3,1,4.5
CC1(c2ccccc2Cl)NC(=O)N(CC(=O)NCc2ccco2)C1=O (centres undefined),-3,-20,-1,0.3,4,0.1,-10,12,12,0.1
Cc1csc(Sc2nc3c(c(=O)[nH]c(=O)n3C)n2Cc2ccccc2Cl)n1,8,-31,14,1.0,-9,1.4,-19,.,.,.
Cc1ccc(O)c(-c2cc(C(=O)Nc3c(C)n(C)n(-c4ccccc4)c3=O)[nH]n2)c1,-7,-12,-4,2.7,-12,0.3,25,.,.,.
C=CCN(c1ccccc1)S(=O)(=O)c1cccc(C(=O)Nc2ncccc2O)c1,14,-11,-3,-6.2,-7,0.3,6,.,.,.
O=C(CCSc1nc(-c2ccco2)cc(C(F)(F)F)n1)N1CCN(c2ccccc2)CC1,-12,-39,8,2.8,-2,1.3,2,.,.,.
COc1ccc(Nc2ccccc2N)cc1,8,0,59,-0.4,5,0.5,98*,.,.,.
Cc1occc1C(=O)N1CCCC(CO)(Cc2ccc(F)cc2F)C1 (centres undefined),1,8,-4,-1.5,20,-0.5,-6,-3,-14,-3.5
COc1ccc(/C=N/NC(=O)c2ccc3nc[nH]c3c2)cc1OC,-1,1,0,-0.8,-2,0.1,15,13,-10,1.9
COc1ccccc1-c1nnc2sc(COc3ccc(Cl)cc3)nn12,2,2,4,9.7,-2,0.4,.,.,.,.
O=C(NCCCc1ccccc1)c1ccncc1,2,-1,.,-12,-12,-0.4,-15,.,.,.
COc1ccccc1Cn1c(=S)[nH]c2ccc(Br)cc2c1=O,1,5,.,2.3,-6,-0.5,.,3,5,0.1
C/C(N)=C(/C#N)C(=O)CSc1nc2cc(Cl)ccc2c(=O)n1Cc1ccco1,59*,2,-15,-5.8,12,0.6,18,-2,0,13
CCc1c(C)[nH]c(=S)c(C#N)c1C,0,2,-4,3.3,6,1.1,4,.,.,.
CCOc1ccc2nc(-c3ccccc3)nc(SCC(=O)OC)c2c1,43,-1,4,3.1,8,0.4,-19,1,8,-2.8
Cc1coc2c1c(C)cc1oc(=O)c(CC(=O)NCC(=O)NCC(=O)O)c(C)c12,-14,-5,1,-1.0,-6,1.6,-7,2,10,5.9
O=C(O)C1C2C=CC(C2)C1C(=O)NCCC1=CCCCC1 (centres undefined),-8,-8,.,0.0,2,-0.2,-11,.,.,.
O=C(C1CCCO1)N1N=C(c2ccc(Br)cc2)CC1c1ccco1 (centres undefined),-1,-5,-1,.,-8,0.5,.,-5,-12,-9.9
CCOc1ccc(N2C(=O)C3C(c4ccc(O)cc4)NC(CCSC)(C(=O)OC)C3C2=O)cc1 (centres undefined),1,?,1,-3.0,1,-0.1,-3,-2,5,0.2
CCN(CC)S(=O)(=O)c1cccc(NC(=O)COC(=O)c2ccc(Br)o2)c1,-10,-8,-6,5.6,-4,0.6,-3,-4,-16,-8.1
COc1ccccc1N1CC(C(=O)Nc2cccc(C(=O)O)c2)CC1=O (centres undefined),1,0,-1,2.2,6,1.3,-12,.,.,.
CCN(CC(=O)Nc1cccc(OC)c1)C(=O)c1ccco1,-14,-3,-3,-4.9,-5,-0.3,-3,7,16,0.7
NS(=O)(=O)c1ccc(CCNC(=O)C2CCCCN2S(=O)(=O)c2ccccc2)cc1 (centres undefined),-7,28,-1,-3.3,5,-1.0,-9,.,.,.
Cc1nc([N+](=O)[O-])c(Sc2nc3ccccc3n2C)n1Cc1ccccc1,13,0,-7,1.5,11,-0.1,98*,0,-8,4.1
COc1ccc(S(=O)(=O)NCC2CCCN(Cc3ccc(C)o3)C2)cc1 (centres undefined),-2,2,0,1.7,1,0.9,6,8,12,0.8
O=[N+]([O-])c1ccc(N2CCN(c3ccc(F)cc3)CC2)cc1,-3,-13,.,-3.2,5,0.8,.,8,14,-3.6
Cc1cccc(C(=O)Nc2nnc(SCC(=O)NC3CC3)s2)c1,-6,7,-2,-1.4,-2,1.4,1,5,6,-2.5
Cc1nn(-c2ccc(F)cc2)c(Cl)c1/C=N/NC(=O)c1ccc(O)cc1,9,16,1,11,6,0.2,-3,-33,-40,2.5
O=C(NC(Cc1c[nH]c2ccccc12)C(=O)N/N=C/c1ccc(Br)cc1)c1cccs1 (centres undefined),51,2,5,1.7,-1,0.0,-7,7,15,1.1
O=C(c1cc2c(s1)-c1ccccc1OC2)N1CCc2ccccc2C1,-7,-4,-11,-2.3,-3,-0.7,5,-1,-9,-1.7
COC(=O)C1=COC(OC2OC(CO)C(O)C(O)C2O)C2C1C=CC2(O)CO (centres undefined),.,.,.,-4.1,0,-0.4,-21,.,.,.
CCCCOc1ccc(-c2ncc(C(=O)OCC)c(N)n2)cc1,-20,62,0,1.6,-1,-1.2,-11,.,.,.
COc1cccc(C2CC(c3c(-c4ccccc4)c4cc(Cl)ccc4[nH]c3=O)=NN2S(C)(=O)=O)c1OC (centres undefined),36,17,20,-8.7,11,0.0,11,.,.,.
Cc1cccc(OCCSc2nc3ncnc(N)c3[nH]2)c1,-15,-20,-3,-3.1,3,1.3,.,8,12,2.3
CCCCC(=O)Nc1ccc(C)c(O)c1,20,-5,-8,-5.3,3,0.2,45,.,.,.
O=C(CSc1n[nH]c(-c2ccncc2)n1)Nc1ccc(Cl)c(C(=O)O)c1,-2,-12,-7,0.6,-4,-0.5,.,6,8,-2.6
COCCSc1ccccc1C(=O)N1CCN(c2ccccc2)CC1,-2,-6,1,3.6,4,0.0,87*,9,-1,4.2
Cn1c(C(=O)O)ccc1S(=O)(=O)N(Cc1ccccc1)Cc1ccccc1,-34,-1,.,0.4,5,-0.4,-2,-35,-43,-3.3
CCCCSc1nnc(-c2ccccc2)c2ccccc12,9,-25,17,-2.9,8,0.0,-10,-24,-25,-1.8
COc1cccc(OC)c1OC(=O)C1CC(=O)N(c2ccc3c(c2)OCCO3)C1 (centres undefined),.,.,1,4.4,7,-0.5,-8,1,-2,1.8
Cc1ccc(NC(=O)CCC(=O)NCCO)cc1,-15,-6,-4,0.6,3,1.1,-1,.,.,.
Cc1cc(NC(=O)COC(=O)CC2CCCC2)c([N+](=O)[O-])cc1C,-8,4,-4,4.0,2,0.1,-1,-13,-13,-1.7
COc1ccc(OCc2cc(C(=O)N(C)C(C)c3ccon3)no2)c(Cl)c1 (centres undefined),11,-5,-1,-4.5,0,0.9,0,-18,-13,-0.1
CCc1nnc(NS(=O)(=O)c2ccc(NC(=O)c3ccccc3O)cc2)s1,-10,7,1,-4.8,-1,0.4,47,5,0,0.6
Cc1ccccc1-c1nc(CS(=O)(=O)CC(=O)NCc2ccco2)c(C)o1,17,11,4,-1.8,2,0.2,-17,-5,-10,-2.4
Cc1oc(-c2ccccc2F)nc1CS(=O)CC(=O)NCc1ccccc1 (centres undefined),8,0,-7,-4.4,-1,-1.1,97*,-2,-2,0.8
Cc1ccc(NC(=O)CCn2cccc2)cc1Cl,-9,-3,-7,-9.2,3,-0.2,.,.,.,.
Cc1ccc(C23CC4CC(CC(C(=O)OCC(=O)N(C)C)(C4)C2)C3)cc1,10,-4,-5,1.3,2,-0.6,-89,-31,-44,-9.3
CCN(CC(=O)NCc1ccc(Cl)cc1)C(=O)/C=C/c1ccco1,-3,-2,-3,0.9,0,1.1,6,10,11,-0.5

# More structures
smiles,T cruzi inh,Calb FLC,Beta cell apopt,LANA-H2A inh,B2AR ag,A1 inh,ALR inh,Ecoli rRNA inh,Ecoli rRNA inh OD600,Ecoli rRNA inh RFP
Cc1ccc(N2C(=O)C(Cl)=C(NCc3ccccc3)C2=O)c(C)c1,4,-13,-3,-1.7,2,0.6,8,.,.,.
CSCCC(NS(=O)(=O)c1ccc(C)cc1)C(=O)NCCc1c[nH]c2ccccc12 (centres undefined),-12,-6,-3,-5.0,-1,?,2,.,.,.
Cc1csc(NC(=O)CSc2nnc(-c3ccccn3)n2-c2ccc(C)c(C)c2)n1,-11,0,-4,4.5,-2,0.9,-8,.,.,.
Cc1ccc2c(c1)c1c3n2CCN(C(=O)Cn2c(-c4ccccc4)noc2=O)C3CCC1 (centres undefined),19,0,12,-3.7,-2,-0.3,-10,.,.,.
CCC(c1nnnn1CCOC)N1CCN(c2nc3ccccc3s2)CC1 (centres undefined),1,-13,-1,1.6,-5,-0.3,-5,-7,-8,-1.1
c1ccc(CSc2ncnc3c2cnn3Cc2ccccc2)cc1,5,24,-5,-1.3,9,0.1,0,.,.,.
Cc1ccccc1NC(=O)C1C2CCCC1C2c1ccccc1 (centres undefined),3,13,-8,1.2,0,0.6,-4,.,.,.
CC(C)c1ccc(S(=O)(=O)N2CCN(C(=O)c3cccc(F)c3)CC2)cc1,20,1,2,7.1,-4,-1.0,-4,.,.,.
ON1C2CCCCC2N(O)C1c1c(F)c(F)c(F)c(F)c1F (centres undefined),-3,9,-3,-2.4,-1,0.1,23,.,.,.
COc1cc(F)ccc1S(=O)(=O)N1CCN(c2ccccc2)CC1,-7,0,.,-1.1,7,0.9,70,-16,-11,1.4
S=C(Nc1ccc(Oc2ccccc2)cc1)N(CCCN1CCOCC1)Cc1ccccn1,6,-14,-4,-166,-10,0.0,-4,5,12,2.7
O=C1CSC(c2ccccc2[N+](=O)[O-])N1c1ccccc1 (centres undefined),-10,-4,-7,-1.4,-4,-0.7,99*,2,-1,0.8
COc1ccc(-n2cccc2/C=C2/NC(=O)N(c3cccc(Cl)c3)C2=O)cc1,-2,-9,-1,2.8,8,-0.4,-2,.,.,.
COc1ccc(-n2c(C)c([N+](=O)[O-])c3ccc(O)c(CN(C)C)c32)cc1,2,10,-10,0.2,7,0.3,.,.,.,.
COC(=O)c1scc(C)c1NC(=O)c1ccc(Cl)cc1,-8,-8,-5,-3.2,1,-0.6,2,.,.,.
N/C(=N\OC(=O)Oc1ccccc1)c1ccc([N+](=O)[O-])cc1,2,55,3,-1.5,5,-1.2,-18,.,.,.
CC(=O)Nc1ccccc1C(=O)C(=O)Nc1ccc(Cl)cc1,-18,-5,12,-4.5,-7,0.0,-1,9,14,0.6
CCCn1c(SCC(=O)NC2CCCC2)nnc1C(C)C,-1,-4,-12,6.5,6,1.0,.,3,10,-1.0
Cc1ccc(C(=O)COC(=O)c2ccc(Br)o2)cc1C,-1,4,-4,-4.0,4,-1.0,-4,.,.,.
COCc1cc(CN(C)C(=O)c2oc3c(F)cccc3c2C)[nH]n1,-7,-6,-12,-2.4,-2,-1.1,0,-25,-34,-6.0

# An excerpt; count on the stated rates, not on these rows.
